DUX4 inh – DUX4-mediated transcription inhibition. 293T-iDUX4 ZSCAN4-Gaussia luciferase reporter, 24 h; stronger effect = lower value. activity change, negative = inhibition, % (no concentration beside the values). 0.8% of 37,000 active;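 active means -10% or lower and over 25 points stronger than a control reporter; inconclusive means -10% or lower with a smaller gap; inactive means above -10%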;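 further: 0% = median of neutral control wells and -100% = median of positive control wells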
DUX4 inh difference – second read-out of DUX4 inh, no call of its own (marks repeat the call); Gaussia minus Italica difference, %; measured here: selective DUX4 reporter inhibition;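 worked out from the two reporters; negative = selective loss of the DUX4 reporter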
DUX4 inh control – recorded beside DUX4 inh, whose call it bears; activity change, negative = inhibition, %; measured here: Italica tet-on control reporter;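 0 = neutral control and -100 = positive control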
* marks the source's active call; other numbers are inactive results; ? = inconclusive; . = no result given. These rows are one share of the data. The share of hits here may be higher or lower than overall.

SMILES	DUX4 inh	DUX4 inh difference	DUX4 inh control
Cc1ccc(-c2ccc([C@@H]3[C@@H](CO)N4C(=O)CN(C(=O)CN5CCOCC5)C[C@H]34)cc2)cc1	-2	-2	-0.7
C[C@@H]1CN([C@@H](C)CO)C(=O)CCCn2nncc2CO[C@H]1CN(C)Cc1cccc2c1OCCCO2	5	4	1.4
Cc1ccc(-c2ccc(C3[C@@H]4CN(S(=O)(=O)c5ccccc5)C[C@H]3N4)cc2)cc1 (some centres not stated)	?	13	-13
C/C=C/c1ccccc1[C@@H]1[C@@H](CO)N(C(=O)c2cccnc2)[C@H]1C#N	5	-4	8.7
COCC(=O)N1[C@@H](CO)[C@@H]2c3ccccc3N(C(=O)c3ccccc3F)C[C@@H]21	1	4	-2.6
CCN(C[C@H]1N[C@@H](CO)[C@@H]1c1ccc(C2=CCCC2)cc1)C(=O)c1ccncc1	1	-2	3.1
CCCNC(=O)[C@@H]1[C@@H](CO)[C@@H]2Cn3c(ccc(-c4ccc(OC)cc4)c3=O)[C@H]1N2CC	-1	-2	1.3
C/C=C/c1ccc2c(c1)O[C@H](CN(C)C(=O)Nc1ccc(OC)cc1)[C@H](C)CN([C@H](C)CO)S2(=O)=O	-1	1	-2.2
C[C@@H]1CN([C@H](C)CO)C(=O)CCCn2cc(nn2)CO[C@@H]1CN(C)C(=O)Nc1ccccc1	-1	-1	0.1
C/C=C/c1ccc2c(c1)O[C@H](CN(C)C(=O)NCCC)[C@H](C)CN([C@@H](C)CO)S2(=O)=O	-2	2	-3.4
CNC[C@@H]1OCCCC[C@H](C)Oc2ccc(NS(=O)(=O)c3cn(C)cn3)cc2C(=O)N([C@@H](C)CO)C[C@H]1C	3	4	-0.5
O=C(C[C@@H]1CC[C@H]2[C@@H](COC[C@@H](O)CN2S(=O)(=O)c2ccc(Cl)cc2)O1)NCC1CCCCC1	0	-1	0.1
COc1ccccc1CN1C[C@H](C)[C@@H](OC)CN(C)C(=O)c2ccc(NC(C)=O)cc2OC[C@H]1C	0	-8	8.4
COCC(=O)N1CCC2(CC1)CN(Cc1ccccc1Cl)[C@H](CO)c1c2c2ccc(OC)cc2n1C	-7	2	-8.4
CCOC(=O)c1cc2c(c(-c3cccc(-c4cccc(OC)c4)c3)n1)[C@H](CCO)N(S(=O)C(C)(C)C)C2 (some centres not stated)	7	5	2.7
CN1C(=O)c2cc(NC(=O)c3cscn3)ccc2OC[C@H]2O[C@@H](CC(=O)N3CCOCC3)CC[C@@H]21	-2	1	-2.5
CCNC(=O)[C@H]1[C@H](CO)[C@H]2Cn3c(ccc(C4=CCCCC4)c3=O)[C@@H]1N2CC	-1	-10	8.8
COc1ccc2c3c([nH]c2c1)[C@H](CO)N(C(=O)Nc1ccc(F)cc1)CC31CN(C(=O)c2ccccn2)C1	0	0	-0.3
CC(C)NC(=O)N1CC(=O)N2[C@H](CO)[C@@H](c3ccc(C#CCN(C)C)cc3)[C@H]2C1	6	-2	7.4
C[C@H]1CCCCO[C@H](CN(C)C(=O)Nc2ccc3c(c2)OCO3)[C@@H](C)CN([C@@H](C)CO)C(=O)c2cc(NC(=O)C3CCCCC3)ccc2O1	7	3	3.5
NCC[C@@H]1CC[C@H](NC(=O)NC2CCCCC2)[C@H](CO)O1	7	2	4.6
C[C@H]1CN([C@@H](C)CO)S(=O)(=O)c2ccc(-c3cccnc3)cc2O[C@H]1CN(C)C(=O)CC1CC1	-1	1	-2.0
CO[C@@H]1CN(C)C(=O)c2cc(NS(C)(=O)=O)ccc2OC[C@H](C)N(C(=O)NC(C)C)C[C@@H]1C	-2	-1	-1.6
COCC(=O)N1[C@H](CN(C)C(=O)c2ccccc2)[C@@H](c2ccccc2)[C@@H]1CO	-2	2	-4.1
CO[C@H]1CN(C)C(=O)c2ccc(NC(C)=O)cc2OC[C@H](C)N(C(=O)c2cnccn2)C[C@H]1C	4	3	0.5

Next section (6 carried over from the part before).
SMILES	DUX4 inh	DUX4 inh difference	DUX4 inh control
C[C@H]1CCCCO[C@H](CN(C)C(=O)Nc2ccc3c(c2)OCO3)[C@@H](C)CN([C@@H](C)CO)C(=O)c2cc(NC(=O)C3CCCCC3)ccc2O1	7	3	3.5
NCC[C@@H]1CC[C@H](NC(=O)NC2CCCCC2)[C@H](CO)O1	7	2	4.6
C[C@H]1CN([C@@H](C)CO)S(=O)(=O)c2ccc(-c3cccnc3)cc2O[C@H]1CN(C)C(=O)CC1CC1	-1	1	-2.0
CO[C@@H]1CN(C)C(=O)c2cc(NS(C)(=O)=O)ccc2OC[C@H](C)N(C(=O)NC(C)C)C[C@@H]1C	-2	-1	-1.6
COCC(=O)N1[C@H](CN(C)C(=O)c2ccccc2)[C@@H](c2ccccc2)[C@@H]1CO	-2	2	-4.1
CO[C@H]1CN(C)C(=O)c2ccc(NC(C)=O)cc2OC[C@H](C)N(C(=O)c2cnccn2)C[C@H]1C	4	3	0.5
O=C(Cc1cccnc1)N1CC2(C1)[C@@H](c1ccccc1)[C@@H](CO)N2C(=O)C1CCOCC1	1	4	-3.1
CO[C@@H](CN(C)S(=O)(=O)c1ccc(F)cc1)[C@@H](C)CN([C@H](C)CO)S(=O)(=O)c1cccc(Cl)c1	-4	-4	0.1
N#C[C@@H]1[C@H](c2ccc(C3=CCCC3)cc2)[C@@H](CO)N1C(=O)C1CCCC1	-4	-3	-0.6
COc1ccc(NC(=O)Nc2ccc3c(c2)C(=O)N([C@H](C)CO)C[C@@H](C)[C@H](CN(C)C(=O)c2ccccc2)OCCCC[C@@H](C)O3)cc1	-2	3	-4.9
C[C@H]1CN([C@@H](C)CO)C(=O)c2c(c3ccccc3n2C)-c2ccccc2CO[C@@H]1CN(C)S(=O)(=O)c1ccc(F)cc1	?	.	.
COc1ccc(S(=O)(=O)Nc2ccc3c(c2)C(=O)N([C@H](C)CO)C[C@@H](C)[C@@H](CN(C)S(=O)(=O)c2ccc(Cl)cc2)OCCCC[C@@H](C)O3)cc1	-4	-2	-2.5
Cc1ccc(S(=O)(=O)N2C[C@@H](O)COC[C@H]3O[C@@H](CC(=O)NCC4CCCCC4)CC[C@@H]32)cc1	-3	-7	4.3
C[C@@H]1CN([C@H](C)CO)C(=O)c2cc(N(C)C)ccc2O[C@@H](C)CCCCO[C@H]1CN(C)S(=O)(=O)c1cn(C)cn1	-5	-3	-2.1
C[C@H]1CN([C@@H](C)CO)C(=O)c2cc(C3=CCCCC3)cnc2O[C@@H]1CN(C)CC1CCOCC1	-7	-3	-3.3
CCS(=O)(=O)Nc1ccc2c(c1)C(=O)N(C)C[C@H](OC)[C@@H](C)CN(C(=O)c1ccc3c(c1)OCO3)[C@H](C)CO2	6	5	0.8
O=C(NC1CCCCC1)N1CC(=O)N2[C@H](CO)[C@@H](c3ccc(-c4cccc(F)c4)cc3)[C@H]2C1	-3	4	-7.6
CS(=O)(=O)N1CC(=O)N2[C@H](CO)[C@@H](c3ccc(C#Cc4ccccc4)cc3)[C@@H]2C1	?	.	.
COCCNC(=O)C[C@H]1C[C@@H]2c3cc(NS(C)(=O)=O)ccc3O[C@@H]2[C@H](CO)O1	2	0	2.9
O=C(O)C[C@@H]1C[C@@H]2c3cc(NC(=O)CC4CC4)ccc3O[C@@H]2[C@@H](CO)O1	8	2	5.3
COCC(=O)Nc1ccc2c(c1)C(=O)N(C)[C@@H]1CC[C@H](CC(=O)NC3Cc4ccccc4C3)O[C@H]1CO2	3	3	0.2
Cc1ccccc1-c1ccc([C@H]2[C@H](CO)N3C(=O)CN(C(=O)Cc4ccccn4)C[C@@H]23)cc1	-2	-4	1.7
C[C@H](CO)N1C[C@H](C)[C@H](CN(C)C(=O)Nc2ccccc2C(F)(F)F)OCc2cn(nn2)CCCC1=O	-6	-8	2.1
C[C@H]1CN([C@@H](C)CO)C(=O)c2cccc(NS(=O)(=O)c3ccc(F)cc3)c2O[C@H]1CN(C)Cc1ccc(Cl)c(Cl)c1	-4	4	-7.6
CCS(=O)(=O)N[C@@H]1C=C[C@H](CC(=O)Nc2ccc(-c3ccccc3)cc2)O[C@@H]1CO	-2	3	-4.9
Cn1cnc(S(=O)(=O)N2C[C@H](O)COC[C@H]3O[C@@H](CC(=O)NC4CCC4)CC[C@@H]32)c1	10	0	10
COc1ccccc1CNC(=O)C[C@H]1CC[C@H]2[C@@H](COC[C@H](O)CN2C(=O)Nc2ccc(F)cc2)O1	3	-2	5.0
Cc1ccc(S(=O)(=O)N[C@@H]2C=C[C@@H](CC(=O)NCc3ccc(Cl)c(Cl)c3)O[C@H]2CO)cc1	?	.	.
CN1[C@H](C(=O)NCCCN2CCOCC2)[C@@H](CO)[C@@H]2Cn3c(ccc(/C=C/c4ccccc4)c3=O)[C@@H]21	-3	-3	-0.4
CN1c2ccc(-c3ccc(C#N)cc3)cc2[C@@H]2[C@@H](CCN2C(=O)NC2CCCCC2)[C@H]1CO	?	.	.
O=C(CC1CC1)N1CC2(C1)[C@H](c1ccccc1)[C@@H](CO)N2C(=O)c1cccnc1	6	4	2.2

3 of the entries above in order of the DUX4 inh value, low to high:
compound,DUX4 inh
C[C@@H]1CN([C@H](C)CO)C(=O)c2cc(N(C)C)ccc2O[C@@H](C)CCCCO[C@H]1CN(C)S(=O)(=O)c1cn(C)cn1,-5
Cc1ccccc1-c1ccc([C@H]2[C@H](CO)N3C(=O)CN(C(=O)Cc4ccccn4)C[C@@H]23)cc1,-2
CCNC(=O)[C@H]1[C@H](CO)[C@H]2Cn3c(ccc(C4=CCCCC4)c3=O)[C@@H]1N2CC,-1

Further results:
SMILES	DUX4 inh	DUX4 inh difference	DUX4 inh control
O=C(C[C@H]1C[C@H]2c3cc(NC(=O)C4CCC4)ccc3O[C@H]2[C@@H](CO)O1)NCc1cccc(F)c1	-8	-10	2.1
CC(=O)Nc1ccc2c(c1)C(=O)N(C)[C@@H]1CC[C@H](CC(=O)NCCCN3CCOCC3)O[C@H]1CO2	3	5	-2.0
C[C@H](CO)N1C[C@H](C)[C@@H](CN(C)S(C)(=O)=O)OCc2ccccc2-c2c(n(C)c3ccccc23)C1=O	17	13	3.8
CN1CCN(C(=O)C[C@@H]2C[C@H]3c4cc(NC(=O)C5CCC5)ccc4O[C@H]3[C@@H](CO)O2)CC1	7	4	3.4
CC(C)(C)[S@@](=O)N1Cc2cc(C(=O)N3CCc4ccccc4C3)nc(-c3cccc(-c4ccncc4)c3)c2[C@H]1CCO	-1	-5	4.7
O=C1CN(Cc2ccc(F)cc2)C[C@H]2[C@H](c3ccc(Br)cc3)[C@H](CO)N12	16	17	-1.1
CCCNC(=O)N1C[C@@H]2N[C@H](C1)C2c1ccc(-c2ccc(F)cc2)cc1 (some centres not stated)	?	10	-9.5
CCCNC(=O)C[C@H]1CC[C@@H]2[C@H](COC[C@@H](O)CN2C(=O)Nc2cccc(Cl)c2)O1	7	3	3.8
C[C@@H]1COCc2cn(nn2)CC[C@H](Cc2ccccc2)C(=O)N1	-1	-1	0.6
COc1ccc(S(=O)(=O)N(C)C[C@H]2Oc3ccc(NS(=O)(=O)c4c(C)noc4C)cc3C(=O)N([C@@H](C)CO)C[C@@H]2C)cc1	4	1	3.4
CCCC(=O)Nc1ccc2c(c1)C(=O)N(C)[C@H]1CC[C@H](CC(=O)NCCN3CCCCC3)O[C@H]1CO2	6	4	1.9
C[C@@H]1CN([C@@H](C)CO)C(=O)c2cc(NC(=O)Nc3cccc4ccccc34)ccc2O[C@@H]1CN(C)C(=O)NC1CCCCC1	-4	0	-3.5
N#C[C@@H]1[C@H](c2ccc(-c3cccnc3)cc2)[C@H](CO)N1C(=O)Nc1ccc(F)cc1	0	2	-2.7
C[C@@H]1CN([C@H](C)CO)C(=O)c2cc(/C=C/c3ccccc3)cnc2O[C@H]1CN(C)Cc1cccc(C(=O)O)c1	3	-2	5.1
CN1C(=O)c2cc(NC(=O)c3cccc(F)c3)ccc2OC[C@H]2O[C@H](CC(=O)NCc3ccccc3Cl)CC[C@@H]21	2	1	0.7
CCCNC(=O)N[C@H]1CC[C@@H](CCn2cc(C3CC3)nn2)O[C@H]1CO	4	0	3.7
O=C(Cc1ccccn1)N1[C@H](CO)[C@@H]2c3ccccc3NC[C@@H]21	0	1	-0.3
CC(=O)N1[C@H](CO)[C@@H](c2ccccc2)[C@@H]1CN(C)C(=O)C1CCC1	-2	1	-3.0
O=C(c1cccnc1)N1C[C@H]2[C@@H](c3ccccc31)[C@H](CO)N2C(=O)Nc1ccc(F)cc1	3	-2	4.5
COc1ccc2c3c([nH]c2c1)[C@@H](CO)N(C(=O)CN(C)C)CC31CN(Cc2ccccc2)C1	-6	8	-14
C/C=C/c1ccc([C@H]2[C@@H](CO)N(C(C)=O)[C@@H]2CN(CCC)C(=O)C2CC2)cc1	-3	-1	-1.8
CCCC#Cc1ccc([C@H]2[C@@H](CO)N3CCCCN(C(=O)NC4CCCC4)C[C@H]23)cc1	?	.	.
COc1ccc(OC(=O)N(C)C[C@H]2OCc3cn(nn3)CCCC(=O)N([C@@H](C)CO)C[C@@H]2C)cc1	1	3	-1.6
CCCNC(=O)N1CC2(CN(C(=O)c3cnccn3)C2)c2c([nH]c3cc(OC)ccc23)[C@H]1CO	13	13	-0.6
O=C(c1ccccc1F)N1CC[C@@H]2[C@H]1c1cc(-c3cccc(F)c3)ccc1N[C@@H]2CO	8	6	2.0
